# Source: PubChem BioAssay (Broad Institute)
# HIV Env fusion: inhibitors of HIV-1 Env-driven cell-cell fusion, primary screen, HeLa-JRFL effector, CEM21 target cells, luciferase | inhibition, % at 12.3 µM | hit rate 1.1% among 360,000 | AID 651610, 2012;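 active = mean replicate inhibition score of at least 50 and every replicate individually at or above 50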;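 note: 0% = plate neutral controls and 100% = maraviroc near 300 nM; one replicate is shown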
# Yeast UUG start: modulators of yeast start codon fidelity, primary screen, whole organism, S. cerevisiae, single point, plate reader. S. cerevisiae UUG-firefly luciferase reporter, luminescence/redox ratio. activity score, % at 18.7 µM. hit rate 0.13% among 350,000;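 active = replicate mean at a twofold rise or more, about +100% in these data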;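 note: firefly luciferase made from a UUG start codon reports start codon fidelity; reporter light over untreated wells divided by growth signal over untreated wells; some hits fall short of that in this replicate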
# Starred values were filed as active, the others as inactive; & = joins results of further samples; [ ] = remark or other dose. Only part of the results is shown, so the mix of outcomes need not match the whole.
SMILES,HIV Env fusion,Yeast UUG start
C[C@H]1CN([C@@H](C)CO)C(=O)CCCn2cc(nn2)CO[C@@H]1CN(C)S(=O)(=O)c1ccc(F)cc1,-10[16.7 µM],-9&-10
Cn1cnc(S(=O)(=O)N[C@H]2C=C[C@H](CC(=O)Nc3ccccc3)O[C@@H]2CO)c1,12[16.7 µM],-12
Cc1ccc(-c2ccc3c(c2)O[C@H](CN(C)Cc2cccc(C(=O)O)c2)[C@@H](C)CN([C@@H](C)CO)S3(=O)=O)cc1,-15[16.7 µM],10
C[C@@H]1CCCCO[C@@H](CN(C)S(=O)(=O)c2ccc(Cl)cc2)[C@H](C)CN([C@H](C)CO)C(=O)c2cc(NC(=O)c3ccccc3)ccc2O1,28[16.7 µM],2
CO[C@H]1CN(C)C(=O)c2cc(NC(C)=O)ccc2OC[C@@H](C)N(C(=O)CC2CC2)C[C@H]1C,-105[16.7 µM],26
C[C@H]1CN([C@@H](C)CO)C(=O)Cc2cc(NC(=O)Cc3cn(C)c4ccccc34)ccc2O[C@@H]1CN(C)C(=O)Nc1ccccc1,9[16.7 µM],21
C[C@@H]1CN([C@H](C)CO)C(=O)Cc2cc(NC(=O)Cn3cnnn3)ccc2O[C@H]1CN(C)Cc1ccccc1,-9[16.7 µM],-5
CNC[C@@H]1OCCCC[C@@H](C)Oc2ccc(NC(=O)NC3CCCCC3)cc2C(=O)N([C@@H](C)CO)C[C@H]1C,4[16.7 µM],-6
Cc1ccccc1-c1ccc2c(c1)O[C@H](CN(C)CC1CC1)[C@H](C)CN([C@@H](C)CO)S2(=O)=O,-4[16.7 µM],23
Cc1noc(C)c1NC(=O)N(C)C[C@@H]1Oc2c(NC(=O)NC3CCCCC3)cccc2C(=O)N([C@H](C)CO)C[C@@H]1C,-37[16.7 µM],11
CN(C)C(=O)c1ccc(-c2ccc([C@H]3[C@@H](C#N)N(C(=O)C4CCC4)[C@H]3CO)cc2)cc1,9[16.7 µM],4
CC(C)CC#Cc1ccc2c(c1)O[C@H](CN(C)C(=O)C1CCOCC1)[C@H](C)CN([C@H](C)CO)S2(=O)=O,0[16.7 µM],10
CCS(=O)(=O)Nc1ccc2c(c1)C(=O)N(C)[C@H]1CC[C@H](CC(=O)N3CCOCC3)O[C@H]1CO2,2[16.7 µM],-2
CCCc1cn(CC[C@H]2CC[C@H](NC(=O)Nc3ccccc3F)[C@@H](CO)O2)nn1,4[16.7 µM],1
C[C@@H]1CN([C@H](C)CO)C(=O)Cc2cc(NS(=O)(=O)c3cccs3)ccc2O[C@@H]1CN(C)Cc1ccncc1,-3[16.7 µM],0
Cc1ccccc1-c1cnc2c(c1)C(=O)N([C@@H](C)CO)C[C@@H](C)[C@@H](CN(C)Cc1ccncc1)O2,-42[16.7 µM],-10
C[C@H]1CN([C@@H](C)CO)C(=O)CCCn2cc(nn2)CO[C@@H]1CN(C)C(=O)c1ccc2ccn(C)c2c1,3,22
Cc1noc(C)c1NC(=O)N(C)C[C@@H]1Oc2ccc(NC(=O)Nc3ccc4c(c3)OCO4)cc2CC(=O)N([C@@H](C)CO)C[C@H]1C,7[16.7 µM],-22
O=C(Nc1ccccc1)N[C@@H]1CC[C@H](CCNS(=O)(=O)c2ccccc2F)O[C@@H]1CO,-8[16.7 µM],-7
Cc1ccc(S(=O)(=O)N(C)C[C@@H]2Oc3cc(Br)ccc3S(=O)(=O)N([C@H](C)CO)C[C@H]2C)cc1,22[16.7 µM],0

# Of the compounds above, three have fluorine.
SMILES,HIV Env fusion,Yeast UUG start
C[C@H]1CN([C@@H](C)CO)C(=O)CCCn2cc(nn2)CO[C@@H]1CN(C)S(=O)(=O)c1ccc(F)cc1,-10[16.7 µM],-9&-10
CCCc1cn(CC[C@H]2CC[C@H](NC(=O)Nc3ccccc3F)[C@@H](CO)O2)nn1,4[16.7 µM],1
O=C(Nc1ccccc1)N[C@@H]1CC[C@H](CCNS(=O)(=O)c2ccccc2F)O[C@@H]1CO,-8[16.7 µM],-7

# Next records:
SMILES,HIV Env fusion,Yeast UUG start
C[C@H](CO)N1C[C@H](C)[C@@H](CN(C)C(=O)Nc2ccccc2)Oc2c(NC(=O)Nc3cccc4ccccc34)cccc2C1=O,-9[16.7 µM],22
O=C(C[C@H]1C[C@H]2c3cc(NS(=O)(=O)c4ccccc4)ccc3O[C@H]2[C@@H](CO)O1)NC1CCCCC1,3[16.7 µM],7
COc1ccc(S(=O)(=O)N(C)C[C@H]2Oc3cc(C#CC4CCCCC4)ccc3S(=O)(=O)N([C@@H](C)CO)C[C@@H]2C)cc1,7[16.7 µM],-25
COc1ccc(NC(=O)Nc2ccc3c(c2)C(=O)N([C@H](C)CO)C[C@H](C)[C@H](CN(C)Cc2ccncc2)OCCCC[C@@H](C)O3)cc1,-4[16.7 µM],-8
COc1ccc(-c2cn(CC[C@@H]3CC[C@@H](NC(=O)NC(C)C)[C@@H](CO)O3)nn2)cc1,2[16.7 µM],1
C[C@@H]1CCCCO[C@H](CN(C)C(=O)c2ccccc2)[C@@H](C)CN([C@H](C)CO)C(=O)c2cc(NC(=O)Cc3ccccc3)ccc2O1,-1[16.7 µM],-2
COc1ccc(NC(=O)Nc2ccc3c(c2)C(=O)N([C@H](C)CO)C[C@@H](C)[C@@H](CN(C)C(=O)NC(C)C)O3)cc1,-11[16.7 µM],-3
C[C@H]1CN([C@@H](C)CO)C(=O)c2cc(/C=C/c3ccccc3)cnc2O[C@@H]1CN(C)C(=O)Nc1ccc(C(F)(F)F)cc1,4[16.7 µM],4
COCC#Cc1ccc2c(c1)O[C@H](CN(C)S(=O)(=O)c1cccc(F)c1)[C@@H](C)CN([C@H](C)CO)S2(=O)=O,0[16.7 µM],0
COc1ccc(S(=O)(=O)Nc2cccc3c2O[C@H](CN(C)C(=O)Nc2ccc4c(c2)OCO4)[C@H](C)CN([C@@H](C)CO)C3=O)cc1,-3[16.7 µM],11
COc1ccc(NC(=O)N(C)C[C@H]2Oc3c(NS(=O)(=O)c4ccc(Cl)cc4)cccc3C(=O)N([C@@H](C)CO)C[C@H]2C)cc1,-26[16.7 µM],-9
C[C@H](CO)N1C[C@H](C)[C@H](CN(C)C(=O)Nc2ccc(F)cc2)Oc2cc(-c3cccc(C(=O)N(C)C)c3)ccc2S1(=O)=O,-20[16.7 µM],7
CC(=O)N(C)C[C@H]1Oc2cc(C#CC3CCCCC3)ccc2S(=O)(=O)N([C@H](C)CO)C[C@H]1C,29[16.7 µM],33
CO[C@H]1CN(C)C(=O)c2cc(NC(C)=O)ccc2OC[C@@H](C)N(C(=O)c2cccnc2)C[C@@H]1C,-9[16.7 µM],-7
CNC(=O)C[C@@H]1CC[C@@H]2[C@H](COc3ccc(NC(=O)c4ccc(C(F)(F)F)cc4)cc3C(=O)N2C)O1,-23[16.7 µM],7
COc1ccc(NC(=O)Nc2ccc3c(c2)C(=O)N([C@@H](C)CO)C[C@H](C)[C@@H](CN(C)Cc2ccccc2)OCCCC[C@@H](C)O3)cc1,-47[16.7 µM],23
O=C(Nc1ccc(Cl)cc1)N[C@H]1CC[C@@H](CCn2cc(-c3ccccc3F)nn2)O[C@@H]1CO,-3[16.7 µM],-5
C[C@H]1CN([C@@H](C)CO)C(=O)c2cccc(NC(=O)Nc3ccccc3)c2O[C@H]1CN(C)Cc1ccccc1,-13[16.7 µM],4
C[C@H]1CN([C@@H](C)CO)C(=O)c2cc(NC(=O)Cc3cn(C)c4ccccc34)ccc2O[C@H]1CN(C)C(=O)NC1CCCCC1,-6[16.7 µM],2
COc1ccccc1S(=O)(=O)N[C@@H]1CC[C@H](CCNC(=O)C2CCCCC2)O[C@H]1CO,6[16.7 µM],11

# Shown with each value named: two of the compounds above
> COc1ccc(NC(=O)Nc2ccc3c(c2)C(=O)N([C@@H](C)CO)C[C@H](C)[C@@H](CN(C)Cc2ccccc2)OCCCC[C@@H](C)O3)cc1
  HIV Env fusion: -47[16.7 µM] | Yeast UUG start: 23
> COCC#Cc1ccc2c(c1)O[C@H](CN(C)S(=O)(=O)c1cccc(F)c1)[C@@H](C)CN([C@H](C)CO)S2(=O)=O
  HIV Env fusion: 0[16.7 µM] | Yeast UUG start: 0

# More compounds:
SMILES,HIV Env fusion,Yeast UUG start
CNC(=O)C[C@H]1CC[C@H]2[C@H](COc3ccc(NC(=O)Nc4cc(C)cc(C)c4)cc3C(=O)N2C)O1,1[16.7 µM],-8
C[C@@H]1CCCCO[C@@H](CN(C)CC2CCCCC2)[C@H](C)CN([C@@H](C)CO)C(=O)c2cc(NS(=O)(=O)c3ccc(F)cc3)ccc2O1,42[16.7 µM],28
CNC[C@@H]1OCCCC[C@H](C)Oc2ccc(NS(=O)(=O)c3ccc(F)cc3)cc2C(=O)N([C@@H](C)CO)C[C@@H]1C,-3[16.7 µM],-2
C[C@H](CO)N1C[C@H](C)[C@H](CN(C)C(=O)c2cnccn2)Oc2ncc(C#Cc3ccccn3)cc2C1=O,11[16.7 µM],7
Cc1noc(C)c1NC(=O)Nc1cccc2c1O[C@H](CN(C)S(C)(=O)=O)[C@H](C)CN([C@@H](C)CO)C2=O,-5[16.7 µM],-7
O=C(C[C@H]1CC[C@H](NC(=O)Nc2cc(F)ccc2F)[C@@H](CO)O1)NCc1ccncn1,3[16.7 µM],-19
COc1ccc(S(=O)(=O)N[C@@H]2CC[C@@H](CCn3cc(C(C)C)nn3)O[C@H]2CO)cc1,4[16.7 µM],-3
CCc1cnc(N2[C@@H](C#N)[C@H](c3ccc(C#CCC4CCCC4)cc3)[C@@H]2CO)s1,39[16.7 µM],3
COc1ccc(NC(=O)N(C)C[C@@H]2OCCCC[C@H](C)Oc3ccc(NC(=O)CCC(F)(F)F)cc3C(=O)N([C@H](C)CO)C[C@@H]2C)cc1,5[16.7 µM],33
C[C@H](CO)N1C[C@H](C)[C@@H](CN(C)Cc2ccc(C(F)(F)F)cc2)Oc2ccc(NC(=O)Nc3cccc4ccccc34)cc2C1=O,27[16.7 µM],13
Cc1ccc(S(=O)(=O)Nc2ccc3c(c2)C(=O)N([C@@H](C)CO)C[C@@H](C)[C@H](CN(C)C(=O)Nc2c(C)noc2C)OCCCC[C@@H](C)O3)cc1,-2[16.7 µM],-4
COCC#Cc1cnc2c(c1)C(=O)N([C@H](C)CO)C[C@@H](C)[C@H](CN(C)S(=O)(=O)c1ccccc1)O2,-1[16.7 µM],-6
C[C@@H]1CCCCO[C@@H](CN(C)C(=O)CCCN(C)C)[C@@H](C)CN([C@@H](C)CO)C(=O)c2cc(NC(=O)c3ccccc3)ccc2O1,11[16.7 µM],22
COCC(=O)N(C)C[C@H]1Oc2ncc(C#Cc3ccccc3OC)cc2C(=O)N([C@H](C)CO)C[C@@H]1C,-6[16.7 µM],5
C[C@H]1CN([C@@H](C)CO)C(=O)Cc2cc(NC(=O)Nc3ccc4c(c3)OCO4)ccc2O[C@H]1CN(C)Cc1ccc(Oc2ccccc2)cc1,-3[16.7 µM],1
Cc1ccc(S(=O)(=O)N[C@H]2CC[C@@H](CCNC(=O)C3CCCC3)O[C@@H]2CO)cc1,-1[16.7 µM],-3
COc1ccc(S(=O)(=O)N(C)C[C@H]2Oc3ccc(NC(=O)Nc4ccccc4)cc3CC(=O)N([C@@H](C)CO)C[C@@H]2C)cc1,-7[16.7 µM],7
C[C@@H]1CCCCO[C@H](CN(C)C(=O)Nc2ccc(C(F)(F)F)cc2)[C@H](C)CN([C@H](C)CO)C(=O)c2cc(NS(=O)(=O)c3ccc(F)cc3)ccc2O1,30[16.7 µM],-20
C[C@@H]1CN([C@H](C)CO)C(=O)c2cc(NC(=O)Cc3cn(C)c4ccccc34)ccc2O[C@@H]1CN(C)C(=O)NC1CCCCC1,-16[16.7 µM],13
COc1ccc(S(=O)(=O)N(C)C[C@@H]2OCCCC[C@@H](C)Oc3ccc(NS(C)(=O)=O)cc3C(=O)N([C@H](C)CO)C[C@H]2C)cc1,12[16.7 µM],-4

# Reprinted at random: 2 entries already listed, in no set order.
SMILES,HIV Env fusion,Yeast UUG start
COc1ccc(S(=O)(=O)N(C)C[C@H]2Oc3ccc(NC(=O)Nc4ccccc4)cc3CC(=O)N([C@@H](C)CO)C[C@@H]2C)cc1,-7[16.7 µM],7
COCC(=O)N(C)C[C@H]1Oc2ncc(C#Cc3ccccc3OC)cc2C(=O)N([C@H](C)CO)C[C@@H]1C,-6[16.7 µM],5

# (list continues)
SMILES,HIV Env fusion,Yeast UUG start
CCCNC(=O)C[C@@H]1C[C@@H]2c3cc(NS(=O)(=O)c4ccc(OC)cc4)ccc3O[C@@H]2[C@H](CO)O1,-50[16.7 µM],-13
Cc1ccc(S(=O)(=O)N(C)C[C@@H]2OCCCC[C@@H](C)Oc3ccc(NC(=O)Nc4ccc(C(F)(F)F)cc4)cc3C(=O)N([C@@H](C)CO)C[C@@H]2C)cc1,5[16.7 µM],-11
C=C[C@H](OC)[C@@H](OC(=O)Nc1ccc(SC)cc1)c1ccc(OCCO)cc1,12[16.7 µM],23
Cc1cccc(CN(C)C[C@@H]2OCc3cn(nn3)CCCC(=O)N([C@@H](C)CO)C[C@H]2C)c1,-10[16.7 µM],1
COc1ccc(NC(=O)N(C)C[C@@H]2OCCCC[C@@H](C)Oc3ccc(N(C)C)cc3C(=O)N([C@@H](C)CO)C[C@H]2C)cc1,-12[16.7 µM],17
C[C@@H]1CCCCO[C@H](CN(C)Cc2ccccc2)[C@H](C)CN([C@H](C)CO)C(=O)c2cc(NC(=O)Nc3cccc4ccccc34)ccc2O1,-32[16.7 µM],0
COC(=O)C[C@@H]1C=C[C@H](NS(=O)(=O)c2ccccc2F)[C@@H](CO)O1,-1[16.7 µM],-2
COc1ccc(CN(C)C[C@@H]2Oc3ccc(NC(=O)Nc4ccc5c(c4)OCO5)cc3C(=O)N([C@@H](C)CO)C[C@@H]2C)cc1,-10[16.7 µM],0
Cc1noc(C)c1S(=O)(=O)Nc1ccc2c(c1)CC(=O)N([C@H](C)CO)C[C@@H](C)[C@H](CN(C)C(=O)NC(C)C)O2,9[16.7 µM],-6
